# From PubChem
# Choline anaer gr: blocks anaerobic gram-negative growth on choline; calls only; 0.2% of 55,000 active; Gram-negative bacterium anaerobic choline minimal medium, absorbance growth; hits give low values; many inactives read as strong as hits in the columns shown;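 active = growth z-score on choline under -2 at 7 or 20 h with little or no fall on glycerol, limits in tiers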;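 note: stock transfer was 300 nL into about 50 µL; the organism is E. coli; final concentration not given here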
# Choline anaer gr early: recorded beside Choline anaer gr, whose call it bears; z-score; measured here: choline growth z-score, timepoint 1;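 score of optical density at 7 h as mean of two plates; lower means less growth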
# The depositor's hits bear a star; i = inactive; & = joins results of further samples.
Molecule	Choline anaer gr	Choline anaer gr early
Cc1ccc(NC(=O)NCCCn2c(-c3ccncc3)nc3cccnc32)cc1	i	-0.54
COc1ccc(OCc2nc(CCN(C)C(=O)C3CCCC3)no2)cc1	i	-0.15
O=S(=O)(NCc1ccc2c(c1)OCO2)c1cc(-c2nc(-c3ccc(Cl)cc3)no2)cs1	i	-0.73
CC(=O)Nc1cc(-c2nc(Cn3cnc(S(=O)(=O)N4CCCCC4)c3)no2)ccc1C	i	0.14
Cc1ccc2oc(C(=O)Nc3ccccc3F)cc(=O)c2c1	i	-0.51
CCSc1nc2sc3c(c2c(=O)n1CC)CCc1ccccc1-3	i	0.87
CCOC(=O)c1ccc(NC(=O)C2CC(=O)Nc3nc(C)nn32)cc1 (stereo unspecified)	i	-1.89
Cc1cccc(NC(=O)Nc2c[nH]c(=O)[nH]c2=O)c1C	i	-0.45
CC(C)c1ccc(NC(=O)CSc2ccc(N3CCc4ccccc4C3)nn2)cc1	i	1.3
CCOC(=O)c1c(C)[nH]c(CCC(=O)NC2CC2)c1C	i	-0.63
O=C(NCCCN1CCCC1=O)C1CCN(c2ncnc3c2oc2ccccc23)CC1	i	0.6
Cc1ccc(CCNC(=O)CCCn2ccc3cc(S(=O)(=O)N4CCCC4)ccc32)cc1	i	-1.11
Cc1ccc(-c2nc3ccccc3c3nnc(SCC(=O)N4CCCC4)n23)cc1	i	0.55
Cn1c(=O)c(=O)n(CC(=O)N2CCN(c3ccccc3)CC2)c2cccnc21	i	0.09
CCOC(=O)c1c(S(=O)(=O)NCC(=O)Nc2ccccn2)c(C)n(C)c1C	i	-0.93

# Next part, starting with the last 6 of the part before.
Molecule	Choline anaer gr	Choline anaer gr early
CCOC(=O)c1c(C)[nH]c(CCC(=O)NC2CC2)c1C	i	-0.63
O=C(NCCCN1CCCC1=O)C1CCN(c2ncnc3c2oc2ccccc23)CC1	i	0.6
Cc1ccc(CCNC(=O)CCCn2ccc3cc(S(=O)(=O)N4CCCC4)ccc32)cc1	i	-1.11
Cc1ccc(-c2nc3ccccc3c3nnc(SCC(=O)N4CCCC4)n23)cc1	i	0.55
Cn1c(=O)c(=O)n(CC(=O)N2CCN(c3ccccc3)CC2)c2cccnc21	i	0.09
CCOC(=O)c1c(S(=O)(=O)NCC(=O)Nc2ccccn2)c(C)n(C)c1C	i	-0.93
COc1cc(NCC(O)Cn2nnnc2-c2ccccc2)c(OC)cc1Cl (stereo unspecified)	i	-0.33
Fc1ccccc1/C=C/c1nn2c(Cc3ccccc3)nnc2s1	i	-0.07
Cc1cc2nc(CSc3nc4ccc(NC(=O)Nc5ccccc5Cl)cc4s3)cc(=O)n2o1	i	0.41
CCn1cnnc1C1CCCN(Cc2cccc3[nH]ccc23)C1 (stereo unspecified)	i	0.05
Cc1csc(-c2csc(S(=O)(=O)N3CCC(Cc4ccccc4)CC3)c2)n1	i	0.48
O=C1c2cccc3c2[C@H](CCC3)CN1[C@@H]1CN2CCC1CC2	i	0.26
O=C(NC1CCCCC1)c1cccc(Oc2cc(-c3ccccc3)ncn2)c1	i	-0.99
CC(C)Cc1nnc(NC(=O)CCc2nc(-c3cc4ccccc4[nH]c3=O)no2)s1	i	0.29
Cc1cc2c(cc1S(=O)(=O)N1CCCC1C(=O)N1CCc3ccccc31)OCC(=O)N2 (stereo unspecified)	i	-0.1
Cc1ccc(S(=O)(=O)N2CCc3cc4cc(C)ccc4nc32)cc1	i	0.71
CCOc1ccc(C2CC(=O)Nc3c2c(C)nn3-c2nc(C)cc(C)n2)cc1 (stereo unspecified)	i	-1.46
CC1(C(=O)NC2CCCCC2)Cn2c(cc3ccsc32)C(=O)N1c1ccc2c(c1)OCCO2 (stereo unspecified)	i	1.05
CCCCNc1nc(Nc2ccccc2)c2cnn(C)c2n1	i	0.35
COc1ccc(Cc2nn3c(-c4cccnc4)nnc3s2)cc1OC	i	-0.72
COc1ccc(S(=O)(=O)N(CCO)c2ccccc2CN(C)C/C=C/c2ccc(Cl)cc2)cc1	i	-0.02

Molecule	Choline anaer gr	Choline anaer gr early
O=C(CCCc1nc(-c2ccccc2Cl)no1)Nc1nccs1	i	0.55
O=C(NC1CCCC1)c1cc2cn(C3CCCC3)cc2s1	i	-0.2
Cc1ccc(NC(=O)N2CCN3CCCCC3C2)cc1 (stereo unspecified)	i	-1.35
O=C(O)c1cnn2cc(CCO)cnc12	i	0.54
CCCN(CCC)C(=O)Cn1c(=O)n(-c2cccc(C)c2)c(=O)c2c1c1cc(OC)ccc1n2C	i	0.39
CCOc1ccc(NC(=O)N2CCCC(C)(C(=O)NCc3ccccc3C)C2)cc1 (stereo unspecified)	i	0.08
O=C(CN1CCSc2ccccc21)NCc1ccccc1	i	-0.22
COc1ccc(S(=O)(=O)N(C(=O)c2ccccc2)c2ccc3oc(=O)sc3c2)cc1OC	i	-0.71
COc1ccc(C2C=C(c3ccccc3)Nc3nc(N4C(=O)c5ccccc5C4=O)nn32)cc1 (stereo unspecified)	i	-0.19
O=C(CCn1c(=O)c2ccccc2n2c(=S)[nH]nc12)NC1CCCCC1	i	0.88
C[C@H](N)[C@H](O)c1cccc(O)c1	i	-0.53
CC1CS(=O)(=O)N(c2ccc(S(=O)(=O)NC3CCCC3)cc2)C1=O (stereo unspecified)	i	-1.32
O=c1c2c(nc3nc(CNc4cccc(Cl)c4)[nH]n13)CCC2	i	-0.32
Cc1ccc(-c2ccc(Nc3ccc(S(N)(=O)=O)cc3)nn2)cc1S(=O)(=O)N1CCOCC1	i	-0.24
Cc1nc(-n2[nH]c(C)c(Cc3ccccc3)c2=O)sc1C(=O)Nc1cccc(Cl)c1	i	1.56

Molecule	Choline anaer gr	Choline anaer gr early
CC(C)n1c(=O)[nH]c2ccccc2c1=O	i	-0.46
C=CCOc1cccc(C2Nc3ccc(C)cc3[C@H]3OCCC[C@@H]23)c1 (stereo partly specified)	i	1.03
CCc1ccc(-c2ccc(-n3nc(C)c(S(=O)(=O)N4CCC(C)CC4)c3C)nn2)cc1	i	-0.68
CCN(CC)c1ncc(C(=O)O)cc1NS(=O)(=O)c1c(C)cc(C)cc1C	i	-0.64
CCCn1c(=O)[nH]c2c(sc3ncccc32)c1=O	i	0.21
COCCCNC(=O)C1CCCN(c2ccnc(-c3ccc(F)cc3)n2)C1 (stereo unspecified)	i	-0.96
Cc1c(O)c(=O)n(-c2ccccc2)n1C	i	0.48
CC1CCN(c2ccc(-c3noc(C(=O)N4CCN(C(=O)c5cc6ccccc6[nH]5)CC4)n3)cc2)CC1	i	0.45
CCCCn1c(O)c(C2=NN(C(C)=O)C(c3ccc(Br)cc3)C2)c(=O)[nH]c1=S (stereo unspecified)	i	0.35
CC(C)(C)NC(=O)CN1CCN(c2cc(C(=O)O)c3cc(NC(=O)C(C)(C)C)ccc3n2)CC1	i	-0.73
CCOCCCNCc1ccc(-c2ccc(Br)cc2)o1	i	-0.68
C=CCOc1ccc(C2CC(=O)Nc3c2cnn3-c2nc3ccccc3s2)cc1OC (stereo unspecified)	i	0.17
Cc1cc2c(cc3n2CC(C)(C(=O)NC2CCCCC2)N(CCCN2CCOCC2)C3=O)o1 (stereo unspecified)	i	0.85
Cc1ccc(S(=O)(=O)Nc2ccc(N3CCN(c4cccc(Cl)c4)CC3)c(C(=O)O)c2)cc1	i	0.01
O=C(Cn1ccn2nc(-c3ccc(Cl)cc3)cc2c1=O)NC1CCCC1	i	0.07

# Structural class: the entries above containing a furan ring, fused or not.
Molecule	Choline anaer gr	Choline anaer gr early
O=C(NCCCN1CCCC1=O)C1CCN(c2ncnc3c2oc2ccccc23)CC1	i	0.6
CCOCCCNCc1ccc(-c2ccc(Br)cc2)o1	i	-0.68
Cc1cc2c(cc3n2CC(C)(C(=O)NC2CCCCC2)N(CCCN2CCOCC2)C3=O)o1 (stereo unspecified)	i	0.85

# The listing continues:
Molecule	Choline anaer gr	Choline anaer gr early
Cc1ccc(CNC2=NCCNC23CCC(C)CC3)cc1 (stereo unspecified)	i	0.23
Cc1ccccc1Cn1c(CN2CCCCC2)nc2c1c(=O)n(C)c(=O)n2C	i	0.31
Cc1csc(-c2cc(S(=O)(=O)NCC3CC3)cn2CC(=O)N2CCOCC2)n1	i	-0.08
CC1CCN(C(=O)c2sc3ncccc3c2-n2cccc2)CC1	i	-1.87
C=CCc1ccccc1OCC(O)CNC(C)C (stereo unspecified)	i	0.49&0.32&-0.65
O=C1c2ccccc2C(Nc2ccc3c(c2)OCO3)N1Cc1ccccc1 (stereo unspecified)	i	0.11
CNC(=O)C1=C(C)OCCS1	i	0.15
CC1Cc2ccccc2N1C(=O)c1ccc(N2C(=O)CCS2(=O)=O)cc1 (stereo unspecified)	i	0.42
Cc1ccc(CNS(=O)(=O)c2cc(-c3nc(C(C)C)cs3)cs2)cc1	i	0.28
Cc1ccc(-c2noc(C3CC3)n2)cc1-n1cc(C(=O)NC2CCCCC2)c(C)n1	i	-0.91
O=C(Nc1ccc(N2CCC(c3ccccc3)C2)c(C(=O)O)c1)c1ccccc1 (stereo unspecified)	i	1.07
CC(=O)N1CCc2cc(C(O)CN3CCN(c4cc(Cl)ccc4C)CC3)ccc21 (stereo unspecified)	i	-0.27
C=CCn1c(=O)c2c(nc3n2CCCCN3c2ccc(OCC)cc2)n(C)c1=O	i	0.78
Cc1ccc(C2CCCN2C(=O)c2ccc3c(c2)OCO3)cc1 (stereo unspecified)	i	-0.62
Cc1ccc2nc3c(cc2c1)CCN3S(=O)(=O)c1ccc(F)c(C)c1	i	1

Molecule	Choline anaer gr	Choline anaer gr early
C=C1CC2C3C=C(C)C4=CC(=O)CC[C@]4(C)C3CC[C@]2(C)[C@@]1(OC(C)=O)C(C)=O (stereo partly specified)	i	0.2
O=C(CSc1nc2nc[nH]c2c(=O)[nH]1)Nc1ccc(N2CCOCC2)cc1	i	0.28
O=C(CSc1nc2nc[nH]c2c(=O)[nH]1)Nc1nccs1	i	-0.76
Cc1ccc(C)c(NC(=O)N2CCC(CN3CCCCC3)CC2)c1	i	-1.54
Cc1nc2nc3c(c(NCc4ccccc4Cl)n2n1)CCC3	i	-0.06
CC1CCN(S(=O)(=O)c2ccc(C(=O)CN3C(=O)COc4ccccc4C3=O)cc2)CC1	i	-1.35
CCc1onc(C)c1C1CCCN1Cc1ccc(Cl)cc1 (stereo unspecified)	i	-0.61
CNC(=O)Cc1ccc(-n2c(=O)c3ccccc3n(CC(=O)Nc3ccc4c(c3)OCCO4)c2=O)cc1	i	0.49
CCN(CC)c1ccc(NC(=O)CN2C(=O)C3CCCC3=Nc3cc(C)c(C)cc32)c(C)c1 (stereo unspecified)	i	-0.04
CCC(Sc1nnc2n1CCN2c1ccccc1)C(=O)OC (stereo unspecified)	i	-0.2
Cc1cc(N2CCOCC2)nc(N2CCN(S(C)(=O)=O)CC2)n1	i	-0.43
CCC(C)NC(=O)CCn1c(=O)c2ccccc2n2c(=O)[nH]nc12 (stereo unspecified)	i	0.85
Cc1c(C)n(C)c2ccc(C(=O)N3CCOCC3)cc12	i	-0.7
COCC(=O)Nc1ccc2nc(NS(=O)(=O)c3ccccc3)sc2c1	i	-2.1
Cc1cccc(S(=O)(=O)Nc2ccccc2-c2ccc3cc(C)ccc3n2)c1	i	2.04

Molecule	Choline anaer gr	Choline anaer gr early
CCc1ccc(NC(=O)C2CCN(S(=O)(=O)c3ccc4c(c3)C(C)(C)C(=O)N4C)CC2)cc1	i	0.73
Cc1cc(C)cc(NC(=O)Nc2ccccc2OCc2cc(=O)n3c(ncn3C(C)C)n2)c1	i	-1.73
CCC(=O)Nc1cccc(-c2noc(C3CCCN(C(=O)c4ccc(C)c(F)c4)C3)n2)c1 (stereo unspecified)	i	1.07
Cc1ccc2nc(NC(=O)c3cn(-c4ccc(-c5noc(C6CC6)n5)cc4)nc3C)sc2c1	i	-0.67
CCNC(=O)CCNS(=O)(=O)c1cc(C(=O)OC)n(C)c1	i	-0.31
CCc1ccc(-n2c(=O)c3cccnc3n2CC(=O)Nc2ccc(F)c(F)c2)cc1	i	-0.46
Cc1ccc(Nc2c(-c3ccc(N(C)C)cc3)nc3ncccn23)cc1	i	0.51
Cn1nc(C(=O)N2CCCC(C(=O)NC3CC3)C2)c2c1CCN(C(=O)C(C)(C)C)C2 (stereo unspecified)	i	-0.88
CCN(CC)C(=O)C1CCCN1S(=O)(=O)c1cc2c(cc1C)NC(=O)C(C)O2 (stereo unspecified)	i	-1.62
O=C(Nc1ccccc1)N1CCN(Cc2nc3cccnc3n2-c2cccc(F)c2)CC1	i	-0.98
CCCCC[C@H](O)/C=C/[C@H]1C(=O)C[C@H](O)[C@@H]1C/C=C\CCCC(=O)O	i	-1.05&-0.12
COc1ccc(-c2nn3c(N4CCN(c5nc(C)cc(C)n5)CC4)cc(C)nc3c2C)cc1OC	i	-0.36
Cc1cc(C)c(S(=O)(=O)N2CCC(n3cnc4cccnc43)CC2)c(C)c1	i	-0.59
CC(C)C(NS(=O)(=O)c1ccc2c(c1)CCCC(=O)N2)C(=O)NCc1ccc(Cl)cc1 (stereo unspecified)	i	-1.3
Cc1ccc(-n2cc(C(=O)O)nn2)cc1	i	-1.66

Molecule	Choline anaer gr	Choline anaer gr early
O=C(c1ccc(N2C(=O)CCS2(=O)=O)cc1)N1CCCc2ccccc21	i	0.33
CCOC(=O)c1ccc(NC(=O)CSc2cc(N3CCCC3)ncn2)cc1	i	-1.18
CCCCNC(=O)CSC1=NS(=O)(=O)c2ccccc2N1CC	i	0.37
CC(=O)Nc1c(C)cc(C)cc1-c1nnc(SCC(=O)Nc2ccc(Cl)cc2)[nH]c1=O	i	-0.57
CC1CCc2c(cnc3c(C(=O)NCc4cccnc4)cnn23)C1 (stereo unspecified)	i	1.23
O=C(NCc1ccc2c(c1)OCO2)c1cccc(-c2noc(C3CCC3)n2)c1	i	0.51
CCc1nc(-c2cc(S(=O)(=O)NCC(=O)N3CCCC3)c(C)s2)no1	i	0.15

# Not all compounds are listed. The share of hits here may be higher or lower than overall.
